# From PubChem BioAssay
# Calb biofilm kill: mixtures killing C. albicans biofilm; hit rate 0.02% among 120,000; C. albicans biofilm persisters + clotrimazole, fluorescence viability; primary screen in compound mixtures of four per well; inhibition, % at 7.6 µM;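 active means inhibition above 30.3% in the primary screen of four-compound pools, then above 30% when the compound was retested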;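 further: compounds exposed to preformed 24 h biofilms for 48 h; the number belongs to the whole pool; some results filed as inactive read as strong as hits; inactives centre near 12; 0% = biofilm with clotrimazole alone and 100% = kill control; retested singly at about 60 µM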
#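 System: C. albicans CAF4-2 wild-type biofilms; Medium: RPMI/MOPS medium, pH 7.0; Reagent: Clotrimazole, 50 µg/mL; Times: biofilm formation 24 h, compound exposure 48 h, 37 °C; Detection: 2-h Alamar Blue fluorescence, 535/590 nm excitation/emission; Evaluation: percent inhibition of biofilm viability.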
# * hit, by the source's call. A portion of the library. The share of hits here may be higher or lower than overall.
mol	Calb biofilm kill
NCC/C=C1/c2ccccc2CSc2ccccc21	4.1
CS(=O)(=O)N(CCc1ccccc1)CC(=O)NCc1ccccc1Cl	16.5
CCc1ccccc1NC(=S)N(CCN(C)C)Cc1cccs1	13.5
Cc1ccc2nc3c(c(C(=O)OCC(=O)N(C)C4CCS(=O)(=O)C4)c2c1)CCCC3 (stereo not drawn)	1.0
CC1=NN(C(C#N)c2c(C)nn(Cc3ccccc3)c2C)C(C)(C)C1 (stereo not drawn)	18.7
CCn1c(SCC(=O)Nc2ccc(C)cc2)nc2nc3c(cc2c1=O)COC(C)(C)C3	0.8
CC(=O)Nc1cccc(C(=O)N/N=C/c2ccccc2F)c1	5.8
Cc1nc2c(cnn2-c2ccccc2)c(=O)n1/N=C/c1ccccc1	-5.0
CCN(Cc1ccncc1)C(=S)Nc1ccc(Cl)cc1	14.9
Nc1nc(N)c(N=Nc2ccc(SCC(=O)O)cc2)c(=O)[nH]1	17.3
CC1(C)CC2(CCO1)C(Nc1ccccc1)=NC(=S)N2c1ccccc1 (stereo not drawn)	18.2
NC(=O)CSc1nnnn1-c1ccc2c(c1)OCCO2	15.3
CCOC(=O)c1cc(-c2ccccc2)n(CCC(=O)N2CCN(c3ccccc3OC)CC2)c1C	8.5
Cc1nc([N+](=O)[O-])c(C(=O)OCc2ccccc2C#N)n1C	17.3
Cc1nc(NC(=O)CSc2nnc(Cn3nnc4ccccc43)n2C)sc1C	14.4
CCCCOc1ccc(CSCCNC(=S)Nc2ccccc2)cc1	22.0
COC(=O)N(NC(=O)C(O)(CCC(C)C)CCC(C)C)c1ccccc1	6.3
O=C(c1ccncc1)c1ccc(NC(=O)c2cccs2)cc1	7.6
CN(C)CC(O)CN1C(=O)NC(C)(C)C1=O (stereo not drawn)	13.7
COc1ccc(N2CCN(CC(O)COCc3ccccc3)CC2)cc1 (stereo not drawn)	7.8
COCC(=O)Nc1cc(Cl)c(OC)cc1OC	11.6
COC(=O)COc1ccc(-c2ccccc2)cc1C=O	15.1
C=CCn1c(CSc2nnc(-c3ccccc3)n2C)n[nH]c1=S	28.9
O=C(O)c1cccc(N2C(=O)/C(=C/c3ccc(SCc4ccc(Cl)cc4)o3)SC2=S)c1	-4.6
CCCCC(=O)Nc1ccc2c(c1)nc(CCN1CCN(C)CC1)n2C	11.3
COc1ccc(S(=O)(=O)N2CCC(NC(=O)N3CCOCC3)CC2)cc1	14.9
CCOc1ccc(C(CC(=O)O)NC(=O)C2c3ccccc3Oc3ccccc32)cc1 (stereo not drawn)	10.4
O=C(COC(=O)CN1C(=O)C2CCCCC2C1=O)Nc1ccc(S(=O)(=O)N2CCOCC2)cc1 (stereo not drawn)	7.7
CCCn1nc(NC(=O)C2CCCO2)c2cc3cccc(C)c3nc21 (stereo not drawn)	28.9
O=C(CSc1ccccc1)N1CCN(C(=O)c2ccco2)CC1	18.0
O=C(Nn1cnnc1)c1ccc(Cl)c([N+](=O)[O-])c1	13.6
COc1ccc(CN2CCN(C3CCOCC3)CC2CCO)c(C)c1C (stereo not drawn)	0.7
CN1CCN(CCCNC(=O)c2ccc(/C=C3\Sc4ccccc4N(Cc4ccc(F)cc4)C3=O)cc2)CC1	11.4
CCn1c(COc2ccc(C)cc2)nc2ccccc21	5.8
O=C(Nc1ccccc1)NN1CC(=O)N(c2ccc(Cl)cc2)CC1=O	19.8
COc1ccc(C(=O)Nc2ccc(-c3ccc(NC(=O)c4ccc(OC)cc4)c(OC)c3)cc2OC)cc1	23.1
O=C(Cn1nnc(-c2ccc(CN3CCOCC3)cc2)n1)N(c1ccccc1)c1ccccc1	0.5
COc1ccc([N+](=O)[O-])cc1NC(=O)Cc1noc2ccccc12	12.3
CC1=NN(c2ccccc2)C(=O)/C1=C/C=C/c1ccccc1	10.4
CCOC(=O)C1=C(C)NC(=O)NC1c1ccc(-c2ccc(Cl)cc2)o1 (stereo not drawn)	15.5
CCOC(=O)c1sc(NC(=O)Nc2ccccc2)cc1C	7.2
Cc1cc(C)c(C#N)c(N)n1	14.1
CSc1ccc(CN2CCN(CCC(C)C)C(CCO)C2)cc1 (stereo not drawn)	13.3
COc1ccc2nc(NC(=O)CCN3C(=S)NC(C)(C)CC3C)sc2c1 (stereo not drawn)	16.0
CCC(=O)Nc1nc(-c2ccc3c(c2)CC(C)N3S(C)(=O)=O)cs1 (stereo not drawn)	23.7
COc1ccc(CNC(=O)C(=O)NC2CC(C)(C)NC(C)(C)C2)cc1	9.0
CCCN(CCC)c1ccc(/C=C/c2ccc3cc(OCC)ccc3n2)cc1	19.2
Cc1ccc(C)c2c(N)c3c(nc12)CCCCC3 (tested in a mixture with another compound)	11.8
Cc1sc(N/N=C/c2ccco2)nc1-c1ccccc1	12.1
CCOC(=O)C1=NOC(COc2ccccc2C=O)C1 (stereo not drawn)	12.6
Cc1cccc(-n2c(=O)c3c(C)c(C)sc3n(CC(N)=O)c2=O)c1	3.2
N#CCSc1nc2ccccc2c(=O)n1CCCC(=O)NCC1CCCO1 (stereo not drawn)	6.5
O=C(Nc1nnc(-c2cccnc2)o1)c1cccc([N+](=O)[O-])c1	8.3
CC(C)=C(NC(=O)c1ccccc1)C(N)=O	18.3
CC(OC(=O)c1ccc(S(=O)(=O)NCc2ccco2)cc1)C(=O)Nc1ncc(Cl)cc1Cl (stereo not drawn)	4.9
Cc1nn(Cc2ccc(C(=O)n3cccn3)o2)c(C)c1Br	14.1
CCOc1cc(C(=O)NC(C)C2CCCO2)cc(OCC)c1OCC (stereo not drawn)	8.7
Cc1cc(C)n(Cc2ccc(C(=O)Nc3ccc(Br)cc3C)o2)n1	22.2
CCC(=O)c1c(OCc2ccccc2)ccc2c(C)cc(=O)oc12	-3.3
CC1=C(C#N)C(c2ccc(O)cc2)C(C#N)=C(C)N1	25.2

# Further results follow.
mol	Calb biofilm kill
CCOC(=O)CC1=NN(c2ccccc2)C(=O)C1	-6.1
O=[N+]([O-])c1cc(C(F)(F)F)cc([N+](=O)[O-])c1NCCNC(=S)Nc1cccc(F)c1	23.7
CC(C)N(c1ccccc1)c1ccc(NC(=O)COC(=O)CCN2C(=O)c3cccc([N+](=O)[O-])c3C2=O)cc1	0.7
NC(=S)n1[nH]c(-c2ccc([N+](=O)[O-])cc2)c(N=Nc2ccccc2[N+](=O)[O-])c1=O	10.5
CCOc1cc(N2CCOCC2)c(OCC)cc1NC(=O)[C@H](C)N1C(=O)C2CC=CCC2C1=O (stereo partly drawn)	4.0
CCOC(=O)c1cnc2c(Cl)cccc2c1NCCN1CCOCC1	4.3
O=C1C2C(c3ccccc3)CC=CC2[C@H](c2ccoc2)N1Cc1ccccc1 (stereo partly drawn)	13.2
Cc1ccc(CCNc2ccccc2)c[n+]1[O-]	12.0
CC1(C)CC(=O)C2=C(C1)OC(N)=C([N+](=O)[O-])C2c1cccs1 (stereo not drawn)	7.8
COc1ccc(NC(=O)CSc2nc(C)cs2)cc1	-9.2
CC(C)(C)NC(=O)NC(=O)COC(=O)c1ccc2c(c1)S(=O)(=O)N=C1CCCCCN12	11.6
Cc1ccc(C(C(=O)NCc2ccco2)N(C(=O)CNC(=O)c2cccs2)c2c(C)cccc2C)cc1 (stereo not drawn)	17.0
COc1ccc(-n2c(N)c(C#N)c3ccc([N+](=O)[O-])cc3c2=O)cc1	14.1
Cc1cc(C)c(-c2csc(NC(=O)c3cc([N+](=O)[O-])ccc3N3CCOCC3)n2)c(C)c1	7.2
Cc1ccc(CNC(=O)C2CC(c3cccc(F)c3)=NO2)cc1 (stereo not drawn)	10.2
OCc1nc(CO)n(Cc2ccccc2)n1	12.2
Cc1ccc(S(=O)(=O)Nc2cccc(Cl)c2)cc1NC(=O)c1cccnc1	13.8
Clc1ccc(OCc2nnnn2-c2ccccc2)cc1	16.4
NNC(=O)CN1CCCc2ccccc21	9.2
COc1ccc2c(c1OC)CN(C)CCc1cc3c(cc1C(=O)C2)OCO3	0.2
O=C1CSC(c2cccnc2)N1CCc1ccccn1 (stereo not drawn)	18.8
CCCCN(CCCC)CC(O)COc1ccccc1Br (stereo not drawn)	11.8
CC(=O)Nc1ccc(NC(=O)C2CCC(CNS(=O)(=O)c3cccc4nsnc34)CC2)cc1 (stereo not drawn)	11.1
CCCCCCC(C)n1[nH]c(=O)cc1N (stereo not drawn)	3.7
O=C(CSc1nc2ccccc2o1)N1N=C(c2cccs2)CC1c1ccc(F)cc1 (stereo not drawn)	16.6
CCOC(=O)C1=C(N)OC2=C(C(=O)CC(C)(C)C2)C1c1cc(CSc2nnnn2C)cs1 (stereo not drawn)	9.1
CC(=O)c1ccc(NC(=O)C2C3C=CC(C3=C(c3ccccc3)c3ccccc3)C2C(=O)O)cc1 (stereo not drawn)	13.5
COc1ccc(C(CC(=O)O)NC(=O)Nc2ccccc2)cc1OC (stereo not drawn)	10.4
COc1ccc(C(=O)C2CCCN(C/C=C/c3ccccc3OC)C2)c(OC)c1 (stereo not drawn)	9.4
Cc1cccc(N=C2NC(=O)/C(=C\c3cccs3)S2)c1	23.6
CCOC(=O)COc1ccc2c(=O)cc(-c3ccccc3)oc2c1	18.6
NC(=O)NC(=O)COC(=O)CC12CC3CC(CC(C3)C1)C2	12.1
O=C(Cc1ccccc1)NCC(=O)OCc1ccc([N+](=O)[O-])cc1	5.6
COC(=O)C1=C(C)NC(C)=C(C(=O)OC)C1c1ccc(-c2cccc(Cl)c2Cl)o1	21.9
COCCNC(=O)C(c1cccnc1)N(Cc1ccccc1)C(=O)Cn1nnc2ccccc21 (stereo not drawn)	13.6
Cc1[nH]c2ccc(F)cc2c1CCN(Cc1cccnc1)C(=S)Nc1ccc(F)cc1	-0.5
COc1ccc(C(=O)c2ccc([N+](=O)[O-])cc2Cl)cc1	4.4
COc1ccccc1C1=NNC(=Nc2cccc(S(=O)(=O)N(C)C)c2)SC1	4.4
Cc1cc(C)c2nc(NC(=O)c3ccc4c(=O)n5c(nc4c3)CCCCC5)sc2c1	2.2
CCC(=O)N1CCC2(CC1)Oc1ccc(Cl)cc1C(=O)C21CC(c2ccccc2)=NO1 (stereo not drawn)	7.8

# Compounds above containing an NH in an aromatic ring (five):
mol	Calb biofilm kill
Nc1nc(N)c(N=Nc2ccc(SCC(=O)O)cc2)c(=O)[nH]1	17.3
C=CCn1c(CSc2nnc(-c3ccccc3)n2C)n[nH]c1=S	28.9
NC(=S)n1[nH]c(-c2ccc([N+](=O)[O-])cc2)c(N=Nc2ccccc2[N+](=O)[O-])c1=O	10.5
CCCCCCC(C)n1[nH]c(=O)cc1N (stereo not drawn)	3.7
Cc1[nH]c2ccc(F)cc2c1CCN(Cc1cccnc1)C(=S)Nc1ccc(F)cc1	-0.5

# Next part:
mol	Calb biofilm kill
NC(=O)NCc1ccc(F)cc1	3.9
O=c1c2[nH]c3ccccc3c2nc2n1CCS2	2.0
Cc1cccn2c(CN[C@H]3CCCCNC3=O)c(C(=O)N3CCOCC3)nc12	9.5
COc1cccc(NC(=O)COC(=O)C2CCN(S(=O)(=O)c3cccs3)CC2)c1	2.2
COc1ccc(NC(=O)Nc2nnc(-c3ccco3)s2)cc1	16.2
CC(=O)OCC(=O)C1=CCC2C3CCC4=CC(=O)C=CC4(C)C3(F)C(OC(C)=O)CC12C (stereo not drawn)	16.1
Cc1cc(C)c(S(=O)(=O)N2CCCOC2CNC(=O)C(=O)NCc2ccco2)c(C)c1 (stereo not drawn)	10.5
NS(=O)(=O)c1ccc(NC(=S)NCc2cccc(Cl)c2)cc1	14.8
C#CCOCCOCCOCCNc1nc(N2CCN(C(=O)[C@H](CCC(=O)O)n3cc(C(N)CO)nn3)CC2)nc(N2CCN(C(=O)[C@H](CCC(=O)O)n3cc(C(N)CO)nn3)CC2)n1 (stereo partly drawn)	10.5
COc1cccc(C(=O)CSc2nc3ccccc3n2CC(=O)N(C(C)C)C(C)C)c1	11.8
CCc1nc(CN2CCN(c3cc(C(F)(F)F)ccn3)CC2)c(C)[nH]1	25.6
O=C(O)c1ccccc1C(=O)NCC(O)COc1ccc(Cl)cc1 (stereo not drawn)	5.1
Fc1ccc(-c2c[nH]c(=S)n2Cc2ccccc2)cc1	-7.8
Cc1cc(=O)oc2cc(Oc3ccc(C(N)=O)cc3[N+](=O)[O-])ccc12	9.8
COc1cccc(CNC(=O)CSc2cc(=O)n(C)c3ccccc23)c1	1.4
COC(C[C@@H](O)[C@H](C)[C@H](O)COCc1ccccc1)OC	13.7
CCOc1ccc(Oc2nc(N(CC)CC)nc(N3CCOCC3)n2)nn1	-12.4
COc1ccc(O)c(C(=O)c2cc(C#N)c(=O)n(Cc3ccccc3)c2)c1	13.8
CC(NC(=O)c1ccc2nc[nH]c2c1)c1ccccc1 (stereo not drawn)	-1.6
CCOc1ccc(N(C(=O)CNC(=O)c2cccs2)C(C(=O)NCC2CCCO2)c2ccc(OC)c(OC)c2)cc1 (stereo not drawn)	1.3
Cc1cc(C)nc(NC(N)=NCCc2c[nH]c3ccccc23)n1	16.7
COc1cc(OC)c(NC(=O)CCCn2c(=O)oc3ccccc32)cc1Cl	-1.8
COc1ccc(CC(=O)NNC(=S)NC(=O)c2cccnc2)cc1	18.6
O=C(O)CNc1ncccc1[N+](=O)[O-]	9.1

# Exported with each value named: 2 of the compounds above
O=C(O)CNc1ncccc1[N+](=O)[O-]
  Calb biofilm kill: 9.1
COc1cc(OC)c(NC(=O)CCCn2c(=O)oc3ccccc32)cc1Cl
  Calb biofilm kill: -1.8
